Mtb bLac sens – beta-lactam sensitization of Mtb H37Rv | inhibition, % at 25 µM | 330,000 tested, 0.27% active | M. tuberculosis H37Rv growth with meropenem, percent inhibition; hits of this screen are not shown here;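 active = about 74% or more and at least 40 points above the plate without the antibiotic, then above 30% in a dose series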;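 note: growth measured after seven days incubation then overnight dye step; 0% = bacteria only wells and 100% = bacteria with antibiotic; twin plates without the antibiotic show which effects depend on it; some results filed as inactive read as strong as hits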
An asterisk follows results filed as active; & = joins results of further samples.

| molecule | Mtb bLac sens |
| --- | --- |
| Cc1ccc(NC2CCCN(C(=O)c3ccc(-n4ccnc4)cc3)C2)cc1C (stereo not given) | 1 |
| CC1(c2cccc(Br)c2)NC(=O)N(CC(=O)Nc2ccc3c(c2)OCCO3)C1=O (stereo not given) | -1 |
| O=C(NCc1ccccc1CN1CCCC1)c1ccc(Cl)c(N2CCCC2=O)c1 | 5 |
| CN1C(=O)N(CC(=O)Nc2nccs2)C(=O)C12CCCCC2 | -3 |
| Clc1ccc(C(c2ccccc2)N2CCN(c3ccccn3)CC2)cc1 (stereo not given) | -1 |
| CC(Sc1cccc[n+]1[O-])C(=O)NC1CCCCC1C (stereo not given) | -4 |
| CCN(CC)c1ccc2c(C)cc(=O)oc2c1 | 3 |
| COc1cccc(-c2sc3ccccc3c2-c2ccc(OCCN3CCCCC3)cc2)c1 | 100 |
| COc1ccc(N2CCN(C(=O)c3ccc(CNS(=O)(=O)c4cccc(OC)c4)cc3)CC2)cc1 | -3 |
| COc1cc(C#Cc2c(-c3cncn3C)n(C)c3ccc(-c4ccc5cc[nH]c5c4)cc23)cc(OC)c1 | 97 |
| C#CCOCCOCCOCCNc1nc(N2CCN(C(=O)CCCCCCCCCCNC(=O)Cn3cc(CCCCCN)nn3)CC2)nc(N2CCN(C(=O)CCCCCCCCCCNC(=O)[C@@H](CCC(=O)O)n3cc(CCCCCN)nn3)CC2)n1 | -4 |
| COc1ccc(-c2nnn(CC(=O)NC(=O)NC3CCCCC3)n2)cc1OC | 0 |
| CCOc1ccc(C(=O)NCC(=O)OCCCC(=O)c2ccc(F)cc2)cc1OCC | -5 |
| O=C(COc1ncnc2sccc12)Nc1cccc(S(=O)(=O)N2CCOCC2)c1 | 4 |
| COc1ccc(-c2cc(C(=O)N(C)Cc3nc4ccccc4c(=O)[nH]3)c3ccccc3n2)cc1OC | -1 |
| CSc1ncccc1C(=O)Nc1cccc(S(=O)(=O)N2CCCC2)c1 | -2 |
| O=C(COC(=O)c1cnccn1)Nc1ncc(C(F)(F)F)cc1Cl | -5 |
| COc1ccc(CNC(=O)CNC(c2ccccc2)c2ccccc2)cc1OC | 3 |
| CCN1C(=NCCOC)N[C@@H](c2ccccc2)[C@H](C(=O)OC)[C@H]1C | -5 |
| CCN(C(=O)CSc1nnc(Nc2ccc(OC)cc2)s1)C1CCS(=O)(=O)C1 (stereo not given) | -3 |
| O=C(CNCc1ccccc1Cl)Nc1cc(S(=O)(=O)N2CCOCC2)ccc1Cl | 1 |
| CC(=O)NS(=O)(=O)c1ccc(NC(=O)c2ccc(NC(=O)c3cccs3)cc2)cc1 | 2 |
| C[C@@H]1CN([C@H](C)CO)C(=O)c2cccc(NS(=O)(=O)c3cccs3)c2O[C@H]1CN(C)Cc1ccccc1 | 1 |
| Cc1cc(Cl)ccc1NC(=O)CCN1C(=O)C2CCCCC2C1=O (stereo not given) | -3 |
| FC(F)(F)c1cc(CO[C@@H]2CCCN[C@@H]2c2ccccc2)cc(C(F)(F)F)c1 | 86 |
| COC(=O)[C@]1(C)N[C@H](CN(C)C(C)=O)[C@@H]2C(=O)N(C)C(=O)[C@@H]21 | -5 |
| Cc1cc(C)n(CC(=O)N2CCCC(N3CCN(c4cccc(C(F)(F)F)c4)CC3)C2)n1 (stereo not given) | -6 |
| CCOc1ccc(S(=O)(=O)Nc2cccc(C(=O)NCCCN3CCCC3=O)c2)cc1 | -3 |
| C[C@H](CO)N1C[C@H](C)[C@@H](CN(C)S(=O)(=O)c2ccccc2)Oc2ccc(NC(=O)Nc3ccc(C(F)(F)F)cc3)cc2C1=O | 93 |
| CC(C)(C)c1ccc(S(=O)(=O)N2CCN(CC(O)COCC3CCCO3)CC2)cc1 (stereo not given) | 2 |
| COc1ccc(-c2sc3ccc(N4CCOCC4)cc3c2C#CCCO)cc1 | 93 |
| NC(=O)c1ccc(NS(=O)(=O)c2ccc(Br)s2)cc1 | -6 |
| COC(=O)c1ccc(CNC(=O)Cn2cnc3c(SC)nc(N)nc32)cc1 | 9 |
| COc1ccc(C(=O)NC2CCN(S(=O)(=O)c3ccccc3)CC2)cc1 | -9 |
| Nc1nnc(SCC(=O)NNC(=O)c2ccccc2F)s1 | 7 |
| Cc1cc(C(=O)OCC(=O)Nc2ccccc2Cl)c(C)o1 | -2 |
| COc1ccc(-c2cc3cc(OC)c(OC)cc3cn2)cc1 | 72 |
| COc1cc(C(=O)NCC(=O)N2CCN(S(=O)(=O)c3ccccc3C(F)(F)F)CC2)cc(OC)c1OC | 5 |
| C[C@H](CO)N1C[C@H](C)[C@@H](CN(C)Cc2ccc(-c3ccccc3)cc2)Oc2c(NS(=O)(=O)c3cn(C)cn3)cccc2C1=O | 4 |
| COc1ccc(S(=O)(=O)N2CCN(C(=O)CCSc3ccccc3)CC2)cc1 | 4 |
| COc1ccc(S(=O)(=O)N2CCCCC2)cc1NC(=O)CSc1ncccn1 | -3 |
| CC(OC(=O)CN1C(=O)NC2(CCCC2)C1=O)c1ccc(F)cc1 (stereo not given) | 1 |
| COc1cccc(OCC(=O)N2CCCc3ccccc32)c1 | -7 |
| C=CCC[C@@H](Cc1ccc(F)cc1)C(=O)OCCNC(=O)[C@@H](CC=C)CC(=O)N[C@H](CO)Cc1ccccc1 | -7 |
| O=C(CSc1cccc[n+]1[O-])NC1CCCCC1 | 2 |
| O=S(=O)(c1ccc(Cl)s1)N1CCNCC1 | 3 |
| O=C1CSC(c2ccc(Cl)c(Cl)c2)N1c1nccs1 (stereo not given) | 14 |
| O=C(COc1ccc(Cl)cc1Cl)OCC(=O)c1ccc[nH]1 | 57 |
| O=C(O)c1cc(NS(=O)(=O)c2ccc(F)cc2)cc(NS(=O)(=O)c2ccc(F)cc2)c1 | -1 |
| C[C@H](CO)N1C[C@H](C)[C@@H](CN(C)C(=O)Nc2ccc3c(c2)OCO3)Oc2ccc(NC(=O)Cc3ccccc3)cc2C1=O | -4 |

Next section
| molecule | Mtb bLac sens |
| --- | --- |
| O=C(CN1C(=O)C2CC=CCC2C1=O)NCC(=O)Nc1ccc(F)c(F)c1 (stereo not given) | 1 |
| CCc1noc(C)c1C(=O)Nc1nc(-c2ccccc2)c(C(C)=O)s1 | -5 |
| CCCCCCCOc1ccc(C(=O)Nc2cccnc2)cc1 | 91 |
| COC(=O)C1=C(c2ccccc2OCc2ccccc2)C[C@@H]2CC[C@H]1N2C(=O)NCc1ccc(Br)cc1 | -5 |
| Cc1cc(Cl)ccc1NC(=O)CN1C(=O)C(=O)N(C2CCCC2)C1=O | -8 |
| O=C1CN(S(=O)(=O)c2ccccc2)CCN1 | -1 |
| c1ccc(-c2cc3cc4c(cc3cn2)OCO4)cc1 | 54 |
| O=C(OCC(=O)c1ccc[nH]1)c1ccc(C(F)(F)F)cc1 | 11 |
| O=c1ccc(S(=O)(=O)N2CCCC2)c[nH]1 | -2 |
| CC(C)Cc1ccc(S(=O)(=O)Nc2cccnc2)cc1 | -5 |

Among those listed so far, these contain an NH in an aromatic ring:
| molecule | Mtb bLac sens |
| --- | --- |
| COc1cc(C#Cc2c(-c3cncn3C)n(C)c3ccc(-c4ccc5cc[nH]c5c4)cc23)cc(OC)c1 | 97 |
| COc1ccc(-c2cc(C(=O)N(C)Cc3nc4ccccc4c(=O)[nH]3)c3ccccc3n2)cc1OC | -1 |
| O=C(COc1ccc(Cl)cc1Cl)OCC(=O)c1ccc[nH]1 | 57 |
| O=C(OCC(=O)c1ccc[nH]1)c1ccc(C(F)(F)F)cc1 | 11 |
| O=c1ccc(S(=O)(=O)N2CCCC2)c[nH]1 | -2 |

(cont.)
SMILES	Mtb bLac sens
COCc1c(C(=O)OCC(=O)Nc2ccc(OC(F)F)cc2)oc2ccccc12	-5
CN(C(=O)CN(CCO)CC(=O)N(C)C(C)(C)Cc1ccccc1)C(C)(C)Cc1ccccc1	23
Cn1cccc1C(=O)Nc1ccc(N2CCOCC2)cc1	7
CCOc1ccc(S(=O)(=O)N2CCC(C(=O)OCc3cccc(OC)c3OC)CC2)cc1	95
COc1ccc(CNC(=O)c2csc3c2CCCC3)cc1	7
COc1ccccc1NC(=O)CCCCCN1C(=O)c2cccc3cccc(c23)C1=O	-2
CC(C)Cn1c(SCC(=O)Nc2cccnc2Cl)nnc1-c1ccco1	-4
Cc1ccc(S(=O)(=O)N(C)C[C@@H]2Oc3ccc(NC(=O)Nc4cccc5ccccc45)cc3C(=O)N([C@H](C)CO)C[C@H]2C)cc1	8
COc1ccc2c(c1)OC[C@H]1[C@H]2N2C(=O)c3ccc(C)cc3NC(=O)[C@@]2(C)[C@H]1c1ccccc1	95
NS(=O)(=O)c1ccc(CCNC(=O)c2ccc3nccnc3c2)cc1	-1
CC1CCCCN1C(=O)COC(=O)c1ccc(N2CCCC2=O)cc1 (stereo not given)	0
COc1ccccc1NC(=O)CN(c1ccccc1C)S(C)(=O)=O	-7
CCN(C(=O)COC(=O)Cc1cccc2ccccc12)C1CCS(=O)(=O)C1 (stereo not given)	2
COc1ccccc1N1CCN(C(=O)C2CCN(S(=O)(=O)c3ccccc3F)CC2)CC1	-4
O=C(COC(=O)/C=C/c1cccc(Cl)c1)NCc1cccs1	10
CC(=O)c1ccc(NC(=O)CN2CCN(S(=O)(=O)c3ccc4ccccc4c3)CC2)cc1	1
Cc1cccc(S(=O)(=O)Nc2cc(Cl)ccc2N2CCOCC2)c1	-3
O=C(O)c1ccccc1C(=O)Nc1ccccc1NC(=O)c1ccccc1C(=O)O	-2
COc1cccc(Nc2ccc(N3CCCCC3)cc2)c1OC	81
Cc1ccc(NC(=O)COC(=O)C2COc3ccccc3O2)cc1 (stereo not given)	-5
Cc1cccc(C)c1NC(=O)CNC(=O)CCNC(=O)c1ccco1	0
COc1ccc(NS(=O)(=O)c2cc(NC(=O)c3ccc(Cl)cc3)ccc2N2CCOCC2)cc1	-2
Cc1ccccc1-c1nnc(SCC(=O)NC2CCS(=O)(=O)C2)n1C (stereo not given)	-3
CNC(=O)C12CC3CC(C1)CC(c1ccc(C)cc1)(C3)C2	-3
O=S(=O)(Nc1ncnc2sccc12)c1cccc(F)c1	5
COc1ccc(C(=O)N[C@H](C(=O)NC2CCCCC2)C(C)C)cc1	1
COc1ccc(OC)c(NC(=O)CSc2nc(O)cc(=O)n2CC(C)C)c1	-4
C=CCn1c(SCC(=O)N2CCCC2=O)nc2sc(CC)cc2c1=O	-12
O=C(O)c1ccc(N2CCCS2(=O)=O)cc1	-3
CCN(C[C@H]1N[C@@](Cc2ccccc2)(C(=O)OC)[C@H]2C(=O)N(C)C(=O)[C@@H]12)C(=O)Nc1ccccc1	6
Cc1cccc(C)c1NC(=O)c1cccnc1	3
CC(C)(C)c1ccc(C(=O)OCC(=O)N2CCC(c3ccccc3)=N2)cc1	8
COC(=O)c1c(NC(=O)CN2C(=O)NC3(CCC(C)CC3)C2=O)sc2c1CCC2 (stereo not given)	41
CC(C)(C)c1ccccc1O	1
COc1ccc(-c2oc(=O)c3cc(OC)c(OC)cc3c2-c2ccc3c(c2)OCO3)cc1	-1
CCC(=O)NC(c1cc(Cl)c2cccnc2c1O)C1CC1 (stereo not given)	41
Cc1ccc(-c2cc(C(=O)N/N=C/c3ccccc3)n[nH]2)o1	18
COc1ccc(S(=O)(=O)NCCC(=O)N2CCCN(C)CC2)cc1	2
Fc1ccc2cc(CCO[C@H]3CCCCO3)ncc2c1	-7
N#Cc1ccccc1	-7
Cc1ccc(C(C(=O)NCC2CCCO2)N(C(=O)c2snc(C(N)=O)c2N)c2ccccc2)o1 (stereo not given)	2
COc1ccc(CCC(=O)Nc2ccc(OC)c(S(=O)(=O)N3CCCCC3)c2)cc1OC	-1
Nc1nc(SCCO)[nH]c(=O)c1NC(=O)c1ccco1	-5
COc1ccc(N2CCN(CC(=O)NC(=O)NCc3ccccc3)CC2)cc1	-1
COc1cccc(/C=C/C(=O)OCC(=O)NCC2CCCCC2)c1OC	21
O=C(Nc1nnc(-c2ccccc2)o1)c1cccc(S(=O)(=O)N2CCOCC2)c1	84
Cc1ccc(SCC(=O)OCC(=O)NCCc2ccccc2)cc1C	-7
ClC1C(Cl)C(Cl)C(Cl)C(Cl)C1Cl (stereo not given)	-7&5
CCCCN1C(=O)c2ccc(C(=O)NC3(C)CCS(=O)(=O)C3)cc2C1=O (stereo not given)	-6
CCCCCCSc1ccc(-c2nc3cc(C)ccn3c2NC2CCCCC2)cc1	-5
CCOC(=O)c1csc(NC(=O)c2cc(-c3ccccn3)nc3ccccc23)n1	2
O=C(CNC(=O)COc1ccccc1)NCCN1CCOCC1	2
CN(CC(=O)Nc1ccc(Cl)c(C(F)(F)F)c1)C(=O)CNC(=O)C1CCCCC1	-8
CCCc1cc(=O)[nH]c(SCC(=O)Nc2ccc3ccccc3c2)n1	-1
Cc1ccc([N+](=O)[O-])cc1	-6
CC(C(=O)OCC(=O)NC1CCCCC1)N1C(=O)c2ccccc2C1=O (stereo not given)	2

Some of the entries so far, with each value named:
compound: CCOC(=O)c1csc(NC(=O)c2cc(-c3ccccn3)nc3ccccc23)n1
  Mtb bLac sens = 2
compound: O=C(CNC(=O)COc1ccccc1)NCCN1CCOCC1
  Mtb bLac sens = 2
compound: CN(CC(=O)Nc1ccc(Cl)c(C(F)(F)F)c1)C(=O)CNC(=O)C1CCCCC1
  Mtb bLac sens = -8

Next entries follow:
SMILES	Mtb bLac sens
COc1ccc(C)cc1S(=O)(=O)N1CCN(C)CC1c1ccccc1 (stereo not given)	2
CC1(C)C2CCC1(CS(=O)(=O)N1CCCC1C(=O)O)C(=O)C2 (stereo not given)	5
COC(=O)C1=CN(Cc2ccc(OC)c(OC)c2)C=C(C(=O)OC)C1c1cccc(O)c1	-9
Cc1cccc(C(=O)NCC(=O)OCC(=O)NC2CCCCC2)c1	-3

Screens from PubChem BioAssay.

Some of the compounds tested, so the mix of outcomes need not match the whole.
